Beta2AR agonist – agonists of human beta-2 adrenergic receptor inducing internalization; Am2.2-beta2AR cells, FAP receptor internalization, flow cytometry; reference of the scale not given here; response, % (test concentration not listed); 340,000 compounds, 0.43% hits;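 active means response above a set limit, near 3 SD of response in nonfluorescent compounds, cut at about 42% in these data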;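 further: stock transfer was 100 nL into about 11 µL; a reference agonist was the positive control; negative values mostly stem from fluorescent compounds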
Target sequence (P07550 whole entry, looked up): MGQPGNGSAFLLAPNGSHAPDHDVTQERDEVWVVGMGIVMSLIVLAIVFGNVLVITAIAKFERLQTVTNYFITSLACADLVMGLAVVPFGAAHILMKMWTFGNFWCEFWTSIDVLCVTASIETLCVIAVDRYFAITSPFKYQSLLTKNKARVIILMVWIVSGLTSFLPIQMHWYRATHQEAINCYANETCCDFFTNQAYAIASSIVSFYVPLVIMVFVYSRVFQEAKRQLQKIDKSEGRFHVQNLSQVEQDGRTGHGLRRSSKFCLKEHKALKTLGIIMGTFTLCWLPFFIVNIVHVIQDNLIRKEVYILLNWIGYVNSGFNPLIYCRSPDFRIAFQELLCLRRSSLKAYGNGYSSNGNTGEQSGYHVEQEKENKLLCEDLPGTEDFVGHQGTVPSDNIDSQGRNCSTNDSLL
HNF4A DNA FP – change in binding of human HNF4 alpha to DNA | P41235 | HNF4a-FITC DNA binding, fluorescence polarization, 1 h | 360,000 compounds, 0.3% hits | AID 1224865 | activity change, % at 10 µM; in the data active means activity change above about 30%, passing the limit was not always enough;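 further: controls were the assay level and a saturating level of protein; the project sought stronger binding though the title names inhibitors; some compounds called inactive have numbers as strong as hits; positive values seem to mean higher polarization but the record does not say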
Target sequence (P41235 whole entry, looked up): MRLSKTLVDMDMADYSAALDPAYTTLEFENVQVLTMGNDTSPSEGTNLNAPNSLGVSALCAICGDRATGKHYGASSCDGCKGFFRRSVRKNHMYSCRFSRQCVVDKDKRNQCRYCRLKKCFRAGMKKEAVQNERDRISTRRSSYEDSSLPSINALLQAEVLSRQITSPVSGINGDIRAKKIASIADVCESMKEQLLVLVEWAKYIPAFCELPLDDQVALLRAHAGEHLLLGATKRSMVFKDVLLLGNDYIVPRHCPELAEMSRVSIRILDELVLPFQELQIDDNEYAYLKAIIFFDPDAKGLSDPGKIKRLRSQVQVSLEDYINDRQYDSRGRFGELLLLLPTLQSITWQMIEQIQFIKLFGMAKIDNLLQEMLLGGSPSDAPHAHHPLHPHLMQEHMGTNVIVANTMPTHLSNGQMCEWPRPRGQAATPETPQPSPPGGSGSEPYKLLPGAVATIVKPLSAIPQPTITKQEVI
FGF22 binding – shifts melting point of recombinant human FGF22 | Q9HCT0 | recombinant FGF22 thermal shift, SYPRO orange fluorescence; percent of sucrose octasulfate shift, DMSO zero | calls only at 9.99 µM | 340,000 compounds, 1.5% hits | AID 651658;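 active means melting point raised past a set limit in the mean and every replicate; three in four hits are not shown here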
Target sequence (Q9HCT0 whole entry, looked up): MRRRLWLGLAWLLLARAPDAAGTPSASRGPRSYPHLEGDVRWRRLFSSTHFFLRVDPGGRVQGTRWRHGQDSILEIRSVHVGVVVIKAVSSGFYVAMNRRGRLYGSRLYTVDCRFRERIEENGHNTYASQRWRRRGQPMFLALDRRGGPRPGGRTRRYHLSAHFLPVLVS
* = called active by the depositor; i = inactive; x = not tested or not shown; + = active, no number. An excerpt; rates above refer to the full screens.

SMILES	Beta2AR agonist	HNF4A DNA FP	FGF22 binding
CCOC(=O)c1c(NC(=O)C(=O)N/N=C/c2ccccc2OC)sc2c1CCCCC2	1.1	0.5	x
Cc1cc([N+](=O)[O-])c2[nH]c(C(=O)N/N=C/c3ccccc3C(=O)O)c(-c3ccccc3)c2c1	6.0	0.1	x
Brc1csc(/C=N/Nc2nc3ccccc3s2)c1	6.9	1.9	x
NC(=O)c1ccccc1N/C=C/C(=O)c1ccc(Cl)cc1Cl	-23.0	0.7	x
CCOC(=O)c1c(C)oc2c1c(C=NCC1CCCO1)c(O)c1ccccc12 (stereo unspecified)	-1.3	3.2	x
COc1ccc(/C=N/n2c(SC)nnc2-c2ccccc2)c(OC)c1OC	-5.3	-0.7	x
CC(C)CCOc1ncnc2c1sc1nc3c(cc12)CSC(C)(C)C3	-3.5	-1.6	x
Cc1ccc2c(nc3s/c(=C/c4cccs4)c(=O)n32)c1C	3.0	6.0	x
Cc1ccc(S(=O)(=O)N(C)C[C@@H]2Oc3ccc(NS(=O)(=O)c4ccccc4)cc3CC(=O)N([C@@H](C)CO)C[C@H]2C)cc1	-1.5	-0.5	x
Cc1cc(C)n(CCC(=O)N/N=C/c2ccc(O)cc2O)n1	7.1	-1.4	x
CC(C)(C)c1ccc(C(=O)N/N=C2\C3CN4CCN(C3)CC2(c2ccccc2)C4)cc1	-2.8	2.1	x
COc1ccc(/C=N/NC(=O)c2cccc(COCC(F)(F)C(F)F)c2)cc1	-0.5	0.8	x
CN1CCN(c2ccc([N+](=O)[O-])cc2/C=N/NC(=O)c2ccc(F)cc2)CC1	3.1	3.4	x
N#Cc1c(NCCN)nc(NCc2ccccc2)c2c1CCN(Cc1ccccc1)C2	8.6	10.8	x
Nc1ncnc2c1ncn2C1C=C(CO)C(O)C1O (stereo unspecified)	2.5	-0.6	x
Cc1ccc(NC2OC(CO)C(O)C2O)cc1[N+](=O)[O-] (stereo unspecified)	2.0	0.8	x
Cc1sc2c(c1C)c(=O)n(-c1ccc(F)cc1)c(=O)n2CC(=O)NCc1ccco1	1.1	-1.4	x
COc1cccc(/C=N/NC(=O)CN2C(=O)NC3NC(=O)NC32)c1 (stereo unspecified)	-1.6	-0.1	x
Cc1cc(C)c(C)c(S(=O)(=O)N2CCC(C(=O)NCc3cccs3)CC2)c1C	x	0.6	i
Cc1ccc(S(=O)(=O)N2C[C@H]3[C@H]4C(=O)N(c5ccccc5)C(=O)[C@H]4C[C@H](OC(=O)NC4CC4)[C@@]3(O)C2)cc1	x	-5.4	i
CC1=C(C(=O)N(C(C)C)C(C)C)CC(CC(=O)NCCCN(C)C)C(=O)N1Cc1ccc(C(C)(C)C)cc1 (stereo unspecified)	x	3.1	i
CCCNC(=O)c1cc(S(=O)(=O)N2CCC3(CC2)OCCO3)ccc1F	x	-2.8	i
Cc1ccc(OCCN2CCC2(C)C(=O)Nc2ccc3c(c2)OCCO3)cc1 (stereo unspecified)	x	3.7	i
CC1(C(=O)NS(=O)(=O)c2ccccc2Cl)CCN1C(=O)Cc1ccccc1 (stereo unspecified)	x	2.1	i
CCc1ccc([C@H]2[C@@H]3C(=O)C[C@@H]4C(=O)N(Cc5ccccc5)C(=O)[C@@H]4[C@@H]3CN2S(=O)(=O)c2ccc(C)cc2)cc1	x	-2.8	i
Additional structures
SMILES	Beta2AR agonist	HNF4A DNA FP	FGF22 binding
O=C(Nc1ccccc1)c1nc[nH]c1C(=O)Nc1ccccc1F	x	-2.2	i
CCN(C)C1CN(Cc2cn(Cc3ccc(C(F)(F)F)cc3)nn2)S(=O)(=O)C1 (stereo unspecified)	x	-0.6	i
OCCNc1ncnc2c1ncn2[C@H]1CN(Cc2ccncc2)C[C@@H](CO)O1	x	0.4	i
COc1ccc(/C(O)=C2/C(=O)C(=O)N(CCCN3CCOCC3)C2c2ccc(Cl)cc2)cc1 (stereo unspecified)	x	0.3	i
CCCCn1nnnc1C(c1cc2ccccc2o1)N(C)Cc1ccc(Cl)cc1 (stereo unspecified)	x	2.8	i
COc1ccccc1-c1cc2nc(NCCOc3ccccc3)ccn2n1	x	1.2	i
CC(C)(C)OC(=O)N1CCc2onc(-c3ccc(Cl)cc3)c2C1=O	x	2.9	i
CC(C)C1C(=O)N(Cc2cn(CCC3OCCO3)nn2)CCS(=O)(=O)N1Cc1ccc(-c2cccc(N(C)C)c2)cc1 (stereo unspecified)	x	-3.1	i
O=C(Nc1ccc2c(c1)OCO2)C1Cc2c(-c3cccnc3)ccnc2O1 (stereo unspecified)	x	-7.7	i
CC1(C(=O)N2CCCCC2)CCN1C(=O)Cc1ccc(-c2ccccc2)cc1 (stereo unspecified)	x	1.9	i
CC(=O)Nc1ccc2c(=O)n(-c3ccccc3)sc2c1	x	-1.5	i
O=C(NCc1ccccc1F)c1ccc(S(=O)(=O)N2CCCC2)cc1	x	0.3	i
CCCCNC(=O)C1(C)CCN1C(=O)Cc1cccc2ccccc12 (stereo unspecified)	x	1.1	i
Cc1ccc(S(=O)(=O)N2[C@@H](Cc3ccccc3)CO[C@H]2CC(=O)c2ccc(F)cc2)cc1	x	8.6	i
COCCNC(=O)C1CCCN(Cc2cccc(C(F)(F)F)c2)CC1 (stereo unspecified)	x	-0.4	i
O=[N+]([O-])c1cc2ncccc2c2ncccc12	x	-1.6	i
CC(=O)NCCNc1nc2cc(-c3ccc(C)cc3)sc2c(=O)n1C	x	3.1	i
CC1=C(C(=O)N(C)C)CC(CC(=O)NCC2CCCCC2)C(=O)N1CCC1=CCCCC1 (stereo unspecified)	x	2.5	i
O=C(NCCN1CCC(n2c(=O)[nH]c3ccccc32)CC1)c1ccc(Cl)c(Cl)c1	x	3.6	i
O=C(Nc1cccc(Cl)c1Cl)c1csc([C@@H]2O[C@H](CO)[C@H](O)[C@H](O)[C@H]2O)n1	x	1.9	i
COc1ccc(-c2ccc(CN3C(C(C)C)C(=O)N(Cc4cn(Cc5ccco5)nn4)CCS3(=O)=O)cc2)cc1OC (stereo unspecified)	x	2.4	i
CSc1ncccc1C(=O)N1CCCC(N2CCN(c3ccccc3C)CC2)C1 (stereo unspecified)	x	3.6	i
CC(C)(C)[C@H](NC(=O)c1ccc(N)c(Cl)c1)C(=O)N1CCC[C@H]1C(=O)N[C@H](C#N)CC(=O)O	x	2.3	i
C[C@H](CO)N1C[C@H](C)[C@@H](CN(C)S(=O)(=O)c2ccc(C#N)cc2)OCc2cnnn2CCCC1=O	x	4.5	i
O=C1c2ccccc2C(c2nnnn2Cc2ccccc2)N1CCOc1ccccc1 (stereo unspecified)	x	-0.4	i
The results go on.
SMILES	Beta2AR agonist	HNF4A DNA FP	FGF22 binding
COc1ccccc1-c1cc2nc(NCCc3ccncc3)ccn2n1	x	-3.4	i
O=C(NCC(c1ccco1)N1CCCC1)c1cccc(S(=O)(=O)N2CCc3ccccc32)c1 (stereo unspecified)	x	0.6	i
CC(=O)C1=C(O)C(=CC=Cc2ccccc2)OC1=O	x	59.6*	i
O=C(NCCc1ccc(O)c(Br)c1)c1ccc(Br)o1	x	-0.1	+
CC(C)=CCC[C@H](C)C[C@@H]1CC2=C(C(=O)OC(C)(C)O2)[C@@H](c2ccc(F)cc2)O1	x	-3.6	i
CCc1nc2ccc(C(=O)N3CCN(S(=O)(=O)CC)CC3)cn2c1N(C=O)Cc1ccc(OC)cc1	x	-1.8	i
CCc1nc2ccc(C(=O)NCCCN3CCCC3=O)cn2c1N(CC)C(=O)NCCc1ccccc1	x	0.2	i
CC(=O)Nc1cc(-c2ccc(C(=O)N3CCOCC3)cc2)cn2c(-c3cccc(C(F)(F)F)c3)cnc12	x	0.4	i
COC(=O)c1ccc2nc(-c3ccc(C#N)cc3)c(Cc3cccc(F)c3)n2c1	x	-5.6	i
C[C@H](CO)N1C[C@H](C)[C@@H](CN(C)Cc2ccc(Cl)c(Cl)c2)OCCCC[C@H](C)Oc2ccc(NC(=O)CCC(F)(F)F)cc2C1=O	x	0.7	i
COC(=O)N1CCCCC1c1cc(C(=O)Nc2ccccc2Cl)no1 (stereo unspecified)	x	2.8	i
COc1ccc(CN2C(=O)CCC2(C)c2nnnn2-c2ccc3c(c2)OCCO3)cc1 (stereo unspecified)	x	-0.4	i
CC1(C(=O)NCCc2ccccc2)Cc2c(-c3ccccc3)ccnc2O1 (stereo unspecified)	x	-4.5	i
O=C(NCc1ccccc1)c1cc(C2CCCN(C(=O)CCCc3ccccc3)C2)on1 (stereo unspecified)	x	-1.9	i
CC1=C(C(=O)N(C(C)C)C(C)C)CC(CC(=O)NC2CCCCC2)C(=O)N1Cc1ccccc1 (stereo unspecified)	x	0.8	i
O=C(N[C@H]1c2ccccc2C[C@H]1O)[C@H]1O[C@@H](n2ccc(=O)[nH]c2=O)[C@H](O)[C@@H]1O	x	3.7	i
CCCCN(C=O)c1c(CC)nc2c(OCc3ccc(Cl)cc3Cl)cccn12	x	-1.0	i
CC(C)NC(=O)C1(C)CSCC(=O)N1Cc1cccc(C(F)(F)F)c1 (stereo unspecified)	x	9.4	i
CCNC(=O)C1(C)CCN(C(=O)c2cccc(C#N)c2)C1 (stereo unspecified)	x	0.3	i
O=c1[nH]cc(F)c(=O)n1C1OC(CO)C(O)C1O (stereo unspecified)	x	0.4	i
C=CCNc1ncnc2c1ncn2[C@H]1CN(Cc2ccccc2)C[C@@H](COC(C)=O)O1	x	-0.8	i
COc1ccccc1-c1csc(Nc2ccc(Oc3ccccc3)cc2)n1	x	-0.7	i
O=C(CN1CCN(C(=O)c2cc(C3CC3)nn2-c2ccccc2)CC1)Nc1ccc(F)cc1	x	-0.4	i
CCC(=O)N1Cc2cc(C(=O)NCC(F)(F)F)nc(-c3cccc(-c4cncnc4)c3)c2[C@H]1CCO	x	-1.6	i
O=C(NCCc1ccccc1)c1ccc(S(=O)(=O)N2CCCCC2)cc1	x	1.4	i
(continued)
SMILES	Beta2AR agonist	HNF4A DNA FP	FGF22 binding
C[C@@H]1CN([C@@H](C)CO)C(=O)c2c(c3ccccc3n2C)-c2ccccc2CO[C@H]1CN(C)C(=O)[C@H](C)c1ccccc1	x	3.3	i
COC(=O)[C@]12CCCCC=C1N(CCC1=CCCCC1)C(=O)[C@H](CC(=O)N1CCC(c3ccccc3)CC1)C2	x	0.3	i
COc1cc(CC(=O)N2c3ccccc3N=C(c3ccccc3)C2C(=O)NCc2ccccc2)cc(OC)c1 (stereo unspecified)	x	1.7	i
O=C(Nc1cccc(C(F)(F)F)c1)C1Cc2c(-c3ccccc3Oc3ccccc3)ccnc2O1 (stereo unspecified)	x	0.0	i
CCCCn1c(O)c2n(c1=O)Cc1ccccc1N=C2c1ccc(C)cc1	x	2.6	i
Cc1ccc([C@H]2C[C@@H](n3cc(C4CC4)nn3)[C@H](O)CN2Cc2cccs2)cc1	x	2.0	i
CCCCCCN1C[C@H](O)[C@@H](n2cc(-c3ccc(F)cc3)nn2)C[C@@H]1c1ccc(C)cc1	x	-4.6	i
O=C(CSc1nnc(C2CC2)n1C1CC1)N1CCN(c2ccc(O)cc2)CC1	x	-4.5	i
CC(=Nc1ccccc1)C1=C(O)C(Cc2cccc(F)c2)NC1=O (stereo unspecified)	x	-0.9	i
COc1cccc(-c2cc(NC=O)c3ncc(-c4cc(OC)c(OC)c(OC)c4)n3c2)c1	x	5.7	i
CN(C)C(=O)c1cccc(-c2cnc3c(NC=O)cc(-c4ccc(C(=O)N5CCOCC5)cc4)cn23)c1	x	-10.8	i
CCCCCCC1CC(=CN(C)C)C(=O)O1 (stereo unspecified)	x	1.7	i
CN(C(=O)Nc1ccc(F)cc1)[C@H]1C[C@H]2c3[nH]c4ccccc4c3CCN2C(=O)[C@H]1CO	x	0.5	i

Structural class: those above containing an aryl methoxy group.
SMILES	Beta2AR agonist	HNF4A DNA FP	FGF22 binding
CCOC(=O)c1c(NC(=O)C(=O)N/N=C/c2ccccc2OC)sc2c1CCCCC2	1.1	0.5	x
COc1ccc(/C=N/n2c(SC)nnc2-c2ccccc2)c(OC)c1OC	-5.3	-0.7	x
COc1ccc(/C=N/NC(=O)c2cccc(COCC(F)(F)C(F)F)c2)cc1	-0.5	0.8	x
COc1cccc(/C=N/NC(=O)CN2C(=O)NC3NC(=O)NC32)c1 (stereo unspecified)	-1.6	-0.1	x
COc1ccc(/C(O)=C2/C(=O)C(=O)N(CCCN3CCOCC3)C2c2ccc(Cl)cc2)cc1 (stereo unspecified)	x	0.3	i
COc1ccccc1-c1cc2nc(NCCOc3ccccc3)ccn2n1	x	1.2	i
COc1ccc(-c2ccc(CN3C(C(C)C)C(=O)N(Cc4cn(Cc5ccco5)nn4)CCS3(=O)=O)cc2)cc1OC (stereo unspecified)	x	2.4	i
COc1ccccc1-c1cc2nc(NCCc3ccncc3)ccn2n1	x	-3.4	i
CCc1nc2ccc(C(=O)N3CCN(S(=O)(=O)CC)CC3)cn2c1N(C=O)Cc1ccc(OC)cc1	x	-1.8	i
COc1ccc(CN2C(=O)CCC2(C)c2nnnn2-c2ccc3c(c2)OCCO3)cc1 (stereo unspecified)	x	-0.4	i
COc1ccccc1-c1csc(Nc2ccc(Oc3ccccc3)cc2)n1	x	-0.7	i
COc1cc(CC(=O)N2c3ccccc3N=C(c3ccccc3)C2C(=O)NCc2ccccc2)cc(OC)c1 (stereo unspecified)	x	1.7	i
COc1cccc(-c2cc(NC=O)c3ncc(-c4cc(OC)c(OC)c(OC)c4)n3c2)c1	x	5.7	i
